HPGD block – blocks human HPGD enzyme activity. actives 4.3% (n = 150,000). purified HPGD, NADH fluorescence kinetic, PGE2 substrate. AID 894. Potency, µM, for the others: at the top dose activity change, negative = inhibition, actives largely listed as inhibitors; active = well fitted inhibition curve with a large enough effect (not every such curve was filed as active); inconclusive = small, poorly fitted or top-dose-only effect, or another doubt; inactive = no such curve, though single readings can be large or run the other way;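 further: top concentration of the series not given in the record; plate controls included wells without enzyme; inactives centre near -10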
Target sequence (P15428 whole entry, looked up): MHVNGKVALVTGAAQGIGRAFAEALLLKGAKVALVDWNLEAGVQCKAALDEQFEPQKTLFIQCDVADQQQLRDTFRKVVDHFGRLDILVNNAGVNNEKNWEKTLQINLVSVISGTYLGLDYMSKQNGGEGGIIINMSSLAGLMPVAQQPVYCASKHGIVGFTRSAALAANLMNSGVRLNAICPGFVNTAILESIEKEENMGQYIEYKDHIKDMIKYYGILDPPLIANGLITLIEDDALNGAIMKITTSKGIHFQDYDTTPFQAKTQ
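NADH formation kinetics: reaction with 30 uM PGE2 and 1 mM NAD+ (final), 20 nM enzyme, Tris-HCl pH 8 with Tween 20, after 15 min compound preincubation at room temperature. Fluorescence change, last versus first of five reads.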
* = called active by the depositor; ? = inconclusive. On the % scale 0 is the no-effect control and ±100 the full control effect; potency means the concentration at half of the fitted maximal effect.

SMILES	HPGD block
Cc1nc2ccc(S(=O)(=O)NC(C(=O)NC3CCCC3)C(C)C)cc2s1 (stereo not drawn)	-14%
CC(C)c1cc(NC(=O)CSc2nnc(-c3ccccc3F)n2C)on1	-1%
COCCNC(=S)N(CCc1c(C)[nH]c2ccc(C)cc12)Cc1cc(OC)c(OC)c(OC)c1	-10%
Cc1ccc(-c2nn(C)c(=O)c3ccccc23)cc1CNS(C)(=O)=O	-27%
Cc1ccccc1P(=O)(CO)c1ccccc1C	-1%
CC(C)Oc1ccc(C(=O)CCN2CCCCC2)cc1	-11%
Cc1ccc(N2CC(C(=O)Nc3ccncc3)CC2=O)cc1 (stereo not drawn)	-11%
CCN(CC)S(=O)(=O)c1cccc(-c2nnc(SCC(=O)c3cc(C)n(C4CC4)c3C)o2)c1	-13%
C/C(=N\NC(=O)c1cccc(C)c1)c1ccc(N2CCOCC2)cc1	-4%
COc1ccc(C(=O)NC(=S)NCC2CCCO2)cc1 (stereo not drawn)	1%
CCOC(=O)C(C)Sc1ncc(OC)c(Sc2ccc(Cl)cc2)n1 (stereo not drawn)	-13%
COc1ccccc1NC=C1C(=O)OC(C)(C)OC1=O	-15%
CC(=O)OCC(=O)[C@@]1(O)CCC2C3C[C@H](C)C4=CC(=O)C=CC4(C)C3C(O)CC21C (stereo partly drawn)	-5%
Cc1cc(C)n(Cc2ccc(C(=O)Nc3cccc(Br)c3)o2)n1	-11%
COC(=O)c1c(NC(=O)c2cccs2)sc2c1CCCC2	?
O=C(C1CCN(S(=O)(=O)c2cccs2)CC1)N1CCN(c2ccccc2)CC1	-4%
CC(=O)c1cccc(Nc2nc(-c3cccc([N+](=O)[O-])c3)cs2)c1	-22%
CC(C)(C)c1nc(NCC2CCCO2)c2nnn(Cc3ccccc3)c2n1 (stereo not drawn)	-9%
CC(Oc1ccc(Cl)cc1)C(=O)NNC(=S)NC(=O)c1ccco1 (stereo not drawn)	-5%
O=C(C1=C(O)C(=O)N(CCN2CCOCC2)C1c1ccccn1)c1cccs1 (stereo not drawn)	-5%
O=C(Nc1nncs1)c1c(F)c(F)c(F)c(F)c1F	22µM*
O=c1[nH][nH]c(C(F)(F)F)c1C=NCc1cccc(Cl)c1	-13%
FC(F)(F)c1cc(-c2ccccc2)nc(N2CCCCCC2)n1	-7%
O=C(/C=C/c1ccc(Cl)cc1)NC(=S)NN1CCCCC1c1cccnc1 (stereo not drawn)	-13%
CCOC(=O)c1cc(OC(=O)c2ccccc2)n(-c2ccccc2)n1	-12%
O=C(CSc1nc(-c2ccccc2)c(-c2ccccc2)o1)Nc1nnc(-c2ccccc2)s1	-14%
O=C(Nc1ccc(N2CCN(C(=O)c3ccco3)CC2)cc1)c1ccc(F)cc1	-14%
O=C(CCn1c(=O)sc2ccccc21)Nc1nccs1	-12%
CC(=O)Oc1ccc2c(c1C(C)C)CCC1C(C)(C)CCC[C@@]21C (stereo partly drawn)	-9%
COc1ccc(CCN2C(=O)CN(Cc3ccccc3)CC2=O)cc1OC	2%
Cc1ccccc1C(=O)N1CCN(c2ncnc3c2cnn3-c2ccccc2)CC1	-4%
CC(C)(C)c1cnnn1-c1ccc(C=O)cc1	1%
Cc1ccccc1C(=O)O/N=C/c1c(N2CCOCC2)n(C)c2ccccc12	?
CC(C1CCCC(=O)C1)[N+](=O)[O-] (stereo not drawn)	-2%
Cc1csc(SCC(=O)Nc2ccccn2)n1	?
c1ccc(N2CCN(c3nnnn3-c3ccccc3)CC2)cc1	-2%
CCC1CCCCN1C(=S)Nc1ccc(OC(F)F)cc1 (stereo not drawn)	-11%
COc1ccc(-n2nnc3c(=O)n(CC(=O)N4CCC(C)CC4)cnc32)cc1	-7%
CCCC(=NCCc1c(C)[nH]c2ccccc12)C1=C(O)CC(c2ccccc2)CC1=O (stereo not drawn)	-10%
NC[C@H](O)c1ccc(O)c(O)c1	?
C(=N/n1c2ccccc2c2ccccc21)/c1ccco1	-14%
Cc1nn(Cc2c(Cl)cccc2Cl)c(C)c1NC(=O)CCCn1nc([N+](=O)[O-])c(Cl)c1C	-4%
Cn1nc(C(F)(F)F)c(/C=N/OC(=O)c2ccccc2)c1SCc1ccc(Cl)cc1	0%
O=C1CCCc2nc(N3CCN(Cc4ccccc4)CC3)ncc21	-18%
Cc1csc(NC(=O)CSc2nnc(-c3ccncc3)o2)n1	?
O=C(O)c1cccc(N2C(=O)C3CC=C(Cl)CC3C2=O)c1 (stereo not drawn)	-8%
COc1cc(/C=C2\N=C(c3ccccc3)OC2=O)ccc1OCc1c(C)no[n+]1[O-]	-21%
COc1ccc(Br)cc1CN(C)CC(=O)Nc1c(Cl)cccc1Cl	16µM*
Cc1ccccc1Nc1oc(-c2ccccc2)nc1-c1ccccc1	?
Nc1nc(CSC(=S)N2CCN(c3ccccc3)CC2)nc(Nc2ccc(F)cc2)n1	-24%
CC1(C)C=C(c2ccc(O)cc2)CC(C)(C)N1	2%
Cn1c(SCc2ccc3c(c2)OCO3)nnc1-c1ccccc1	-17%
Cn1c(Cn2nnc(-c3ccccc3)n2)nnc1SCc1ccccc1Cl	?
COc1ccc(N(CC(=O)N/N=C/c2cc3ccc(OC)cc3nc2Cl)S(=O)(=O)c2ccccc2)cc1	?
CCC(C(=O)N1CCN(c2ccccc2OC)CC1)c1ccccc1 (stereo not drawn)	-8%
CCCCCCn1c(O)c(/C=C2\C=NN=C2c2ccccc2)sc1=S	-25%
CC(=O)S[C@H]1CC2=CC(=O)CC[C@@]2(C)[C@H]2CC[C@@]3(C)[C@H](CC[C@]34CCC(=O)O4)[C@@H]12	1%
Cc1ccc(CCNC(=O)C2CCCN(S(=O)(=O)c3cnc[nH]3)C2)cc1 (stereo not drawn)	-1%
CCCc1[nH]c(=O)c(C#N)c2c1CCCC2	?
CN1CCN(C(=O)C2CCN(S(=O)(=O)c3cnc[nH]3)CC2)CC1	-3%

Taken from above.
HPGD block with COCCNC(=S)N(CCc1c(C)[nH]c2ccc(C)cc12)Cc1cc(OC)c(OC)c(OC)c1 is entered as -10%
HPGD block with CC(=O)OCC(=O)[C@@]1(O)CCC2C3C[C@H](C)C4=CC(=O)C=CC4(C)C3C(O)CC21C (stereo partly drawn) is entered as -5%
HPGD block with COc1ccc(CCN2C(=O)CN(Cc3ccccc3)CC2=O)cc1OC is entered as 2%

Next part
SMILES	HPGD block
Cn1c(SCc2ccccc2Cl)nc(C(F)(F)F)cc1=O	-5%
COc1ccc2c3c(c(=O)oc2c1OCC(=O)C(C)(C)C)CCCC3	?
Cc1cccc2c1CC(C)(C)N=C2C1=C(O)CC(C)(C)CC1=O	-10%
O=C1c2ccccc2C(=O)N1c1n[nH]c(CCc2ccccc2)n1	-10%
O=C(O)c1cc([N+](=O)[O-])ccc1N1CCCCC1	-20%
COc1ccc(C(=O)/C=C(\C)Nc2ccc(NC(C)=O)cc2)cc1	-17%
O=C(/C=C/c1cccc(Cl)c1)NCCc1ccccc1	8.9µM*
CCC(Sc1nc(-c2ccccc2)cc(=O)[nH]1)C(=O)O (stereo not drawn)	-9%
COc1cc2c(cc1OC)C1N(CC2)C(=O)CCC12C(=O)CCCC2=O (stereo not drawn)	?
CC1(C)CC(=O)C(C=N)=C(O)C1	0%
CCOc1ncccc1C(=O)OCC(=O)N1CC(=O)Nc2ccccc21	-10%
Cc1cccc(-n2nc(C(=O)c3ccco3)cc(-c3nc4ccccc4[nH]3)c2=N)c1	-8%
CCc1cc2c(N3CCN(c4nnc(CC)s4)CC3)ncnc2s1	-8%
N#C/C(C(=O)c1ccccc1)=C1/SC=C(N)N1c1ccccc1	20µM*
COc1ccc(S(=O)(=O)Nc2nc3ccccc3nc2NCc2ccc3c(c2)OCO3)cc1	?
Cc1ccc(N2CCN(c3ccc(NC(=O)CCC(=O)O)cc3)CC2)cc1	-4%
CCOc1cc(/C=N\NC(N)=O)cc(Br)c1OC(C)C	2%
CN(c1ccc(C(=O)Nc2ccccc2Sc2ccccc2)cc1)S(C)(=O)=O	?
C=C(C)COc1ccc(-c2nc(N)ncc2-c2ccc(OC)cc2)c(O)c1	?
O=C(Nc1ccccc1)N1CCN(c2ccccn2)CC1	-23%
O=C(/C=C/c1ccc(Cl)c(Cl)c1)NCc1ccco1	?
CC1(C)CC(=O)c2cc(OCC(=O)NCCCN3CCN(c4ccc(F)cc4)CC3)ccc2O1	-18%
CCn1ncc(C(=O)Nc2cc(C)on2)c1C	1%
O=C(NC1CCCC1)c1sc(=S)n2c1[nH]c(=O)c1ccccc12	-16%
C=CCNc1sc(C(=O)C2CC2)c(N)c1C#N	-10%
CCOC(=O)c1cnc2c(C(=O)OC)cccc2c1NCc1ccco1	-11%
Cc1ccc(Nc2nc(N)nc(CN3CCCCCC3)n2)c(C)c1	-11%
CCOC(=O)c1ccc(-n2c(N)c(C(=O)NCc3ccco3)sc2=S)cc1	28µM*
COc1ccc(Nc2cc(=O)oc3ccccc23)cc1	?
O=c1/c(=C\c2ccc(O)cc2)sc2n1C(c1ccccc1)C(c1ccccc1)=NN=2 (stereo not drawn)	16µM*
Cc1cc(C)n(-c2nc3c(c(=O)[nH]c(=O)n3C)n2CC(C)C)n1	-22%
CCCC1=C(C(=O)OCC)C(c2cc(Cl)cc(OC)c2OCC(=O)OCC)NC(=O)N1 (stereo not drawn)	-1%
Cc1ccccc1/C=c1\s/c(=C\C(=O)C(C)(C)C)[nH]c1=O	?
COC(=O)C1C(=O)C=C(Nc2ccc(F)cc2F)CC1c1ccc(OC)cc1 (stereo not drawn)	-9%
CCN(CC)CCCNC(=O)c1ccc(Cl)c(S(=O)(=O)Nc2ccccc2OC)c1	-6%
CCOc1ccc(-n2cc(C(=O)N3CCC(C)CC3)c3cc(OC)c(OC)cc3c2=O)cc1	-14%
CCCCn1c2nc3ccccc3nc2c2c(=O)n(CCC(C)C)cnc21	-26%
CCOC(=O)Cn1c(=NC(=O)c2cccs2)sc2cc(C(=O)OC)ccc21	?
O=C1N[C@@H](Cc2ccccc2)C(=O)N1CCN1CCOCC1	1%
CC1(C)CC2CC(C)(CN2CC(=O)C(C#N)c2ccccc2)C1 (stereo not drawn)	-19%
Nc1nnc(CC2=CCCCC2)s1	-12%
CCN(CC)c1ccc(/C=C2/SC(=O)N(C(C)C)C2=O)o1	-20%
COc1ccc(-n2c(C)cc(/C=N/Nc3nc(N4CCOCC4)nc(N4CCOCC4)n3)c2C)cc1	-10%
CCOC(=O)C1C(C(=O)OC)=C(c2ccc(F)cc2)c2ccc(OC)cc2N1S(=O)(=O)C(F)(F)F (stereo not drawn)	-29%
COc1ccc(NC(=O)NC(C)(C(F)(F)F)C(F)(F)F)cc1	-2%
c1ccc(CN2CCN(C3=Nc4cccc5cccc3c45)CC2)cc1	-6%
O=C(NCc1ccccc1)c1ccc2c(c1)C(=O)N(CC1CCCO1)C2=O (stereo not drawn)	-20%
O=C(NCc1cccs1)c1ccccc1	25µM*
COc1ccc(S(=O)(=O)Cc2ccc(C(=O)N3CCN(c4cc(Cl)ccc4C)CC3)o2)cc1	-7%
COC(=O)c1cn(NC(=O)c2cccc(F)c2)c(=O)c2ccccc12	-9%
O=C(CN1C(=O)CSC1=O)c1ccccc1	-7%
Cc1nn(-c2ccccc2)c(N)c1N=Nc1ccccc1	20µM*
CC(C)[C@H](NC(=O)c1ccccc1)C(=O)OCC(=O)N1CCCCCC1	-3%
CCOc1ccc(CNC23CN4CN(CN(C4)C2)C3)cc1	1%
Cc1c(Br)cc(C(=O)NCCCN2CCOCC2)c(C)c1C	-3%
Cc1ccccc1NC1=C(Cl)C(=O)OC1NC(=O)c1ccccc1 (stereo not drawn)	-9%
CCCCn1c(C(C)NC(=O)CCC)nc2ccccc21 (stereo not drawn)	3%
O=C(O)/C=C/C(=O)NC1CCS(=O)(=O)C1 (stereo not drawn)	-15%
COc1ccc(CCNC(=O)CCNS(=O)(=O)c2cccc3nsnc23)cc1OC	-2%
COCCn1c(=O)c(-c2cc(F)cc(F)c2)nc2cnc(OC)nc21	?

Pulled by compound from above (three):
SMILES	HPGD block
COCCn1c(=O)c(-c2cc(F)cc(F)c2)nc2cnc(OC)nc21	?
COc1ccc(S(=O)(=O)Nc2nc3ccccc3nc2NCc2ccc3c(c2)OCO3)cc1	?
O=C(CSc1nc(-c2ccccc2)c(-c2ccccc2)o1)Nc1nnc(-c2ccccc2)s1	-14%

The main list resumes, repeating the two entries before the break.
SMILES	HPGD block
COc1ccc(CCNC(=O)CCNS(=O)(=O)c2cccc3nsnc23)cc1OC	-2%
COCCn1c(=O)c(-c2cc(F)cc(F)c2)nc2cnc(OC)nc21	?
CCOc1ccccc1Nc1nnc(SCc2nnc(-c3cc(OC)c(OC)c(OC)c3)o2)s1	-13%
COc1ccc(C2CC(=O)C=C(NCCC(C)C)C2)cc1 (stereo not drawn)	-18%
Cc1c(NC(=O)CSc2nncc3ccccc23)c(=O)n(-c2ccccc2)n1C	-3%
O=C(O)CSc1nc(-c2ccccc2)cc(=O)[nH]1	-6%
CCOC(=O)/C(=N\Nc1cc(C(F)(F)F)ccc1Cl)N(CC)CC	-4%
N#Cc1c(NC(=O)c2ccc(N3CCOCC3)c([N+](=O)[O-])c2)sc2c1CCCC2	-11%

Ordered by heavy-atom count (descending): some entries from above.
SMILES	HPGD block
CC(=O)Oc1ccc2c(c1C(C)C)CCC1C(C)(C)CCC[C@@]21C (stereo partly drawn)	-9%
Cn1c(SCc2ccccc2Cl)nc(C(F)(F)F)cc1=O	-5%
Cc1csc(SCC(=O)Nc2ccccn2)n1	?
CC(C1CCCC(=O)C1)[N+](=O)[O-] (stereo not drawn)	-2%

Screens deposited in PubChem BioAssay by National Center for Advancing Translational Sciences (NCATS).

Some of the compounds tested (hit frequency here may not be typical).
